# VDR inhibitor: blocks the human vitamin D receptor; P11473; VDR-SRC2-3 peptide fluorescence polarization, 2 h; Potency, µM, without a hit: max response, negative = inhibition, most hits filed as inhibitors; 0.93% of 400,000 active; active = well fitted inhibition curve with a large enough effect; inconclusive = small, poorly fitted or top-dose-only effect, or another doubt; inactive = no such curve, though single readings can be large or run the other way; also: series mostly up to about 120 µM
# Target sequence (P11473 whole entry, looked up): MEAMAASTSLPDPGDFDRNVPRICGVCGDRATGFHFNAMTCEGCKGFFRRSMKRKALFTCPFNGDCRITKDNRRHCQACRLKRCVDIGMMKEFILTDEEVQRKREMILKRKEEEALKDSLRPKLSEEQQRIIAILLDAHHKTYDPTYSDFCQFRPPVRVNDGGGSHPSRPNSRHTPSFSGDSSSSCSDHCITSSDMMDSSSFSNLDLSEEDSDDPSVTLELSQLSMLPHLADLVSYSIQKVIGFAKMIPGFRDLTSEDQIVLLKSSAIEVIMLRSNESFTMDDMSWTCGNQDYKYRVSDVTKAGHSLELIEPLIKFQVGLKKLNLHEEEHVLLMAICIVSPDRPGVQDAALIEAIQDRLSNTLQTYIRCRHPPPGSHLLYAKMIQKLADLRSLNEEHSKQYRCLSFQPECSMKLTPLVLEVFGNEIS
#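 Compounds are added to VDR with labelled SRC2-3 coactivator peptide and held 2 h at room temperature. Inhibition of the VDR–peptide interaction is then read as a change in fluorescence polarization.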
# The depositor's hits bear a star; u = inconclusive; & = joins results of further samples. % is scaled to controls: 0 for no effect and ±100 for the full control effect; potency is read from the fitted curve at half-maximal effect. This is a subset, so the mix of outcomes need not match the whole.
# Sample of the layout (7 entries):
VDR inhibitor | Molecule
-2.6% | COCC(=O)N(C)c1nnc(-c2ccccn2)s1
-1.8% | CCOc1cc(C(=O)NC)cc(Br)c1OC
-11.7% | COc1ccccc1-c1cc(C(=O)NCCN2CCOCC2)no1
9.4% | CN(C(=O)c1cccnc1)c1nnc(-c2ccccn2)s1
-13.6% | CCC(=O)NCCCCCCCCCNC(=O)CC
-11.3% | COC(=O)c1ccc(NC(=O)CSc2nc3ncccc3[nH]2)cc1
4.4% | COC(=O)C1=C(C)N(C)C(=S)N(C)C1c1ccc(OC)cc1 (configuration not stated)

# Results, from the first entry:
VDR inhibitor | Molecule
-2.6% | COCC(=O)N(C)c1nnc(-c2ccccn2)s1
-1.8% | CCOc1cc(C(=O)NC)cc(Br)c1OC
-11.7% | COc1ccccc1-c1cc(C(=O)NCCN2CCOCC2)no1
9.4% | CN(C(=O)c1cccnc1)c1nnc(-c2ccccn2)s1
-13.6% | CCC(=O)NCCCCCCCCCNC(=O)CC
-11.3% | COC(=O)c1ccc(NC(=O)CSc2nc3ncccc3[nH]2)cc1
4.4% | COC(=O)C1=C(C)N(C)C(=S)N(C)C1c1ccc(OC)cc1 (configuration not stated)
0.5% | CCC1CCC(C(=O)NC(C(=O)NCCN(CC(C)C)CC(C)C)C(C)C)CC1 (configuration not stated)
1.6% | O=C(Cn1nc(C(F)(F)F)c2c1CCC2)Nc1ccccc1C(F)(F)F
4.7% | CCNC(=O)c1ccc(CSc2nc3ccccc3s2)cc1
12.9% | O=C(Nc1ccc(C(=O)O)cc1)/C(=C\c1ccco1)NC(=O)c1ccccc1Cl
-12.5% | Cc1ncc([N+](=O)[O-])n1CC(=O)Nc1ccc(F)cc1
11.6% | CCOC(=O)C1(Cc2cccc(F)c2)CCN(C(=O)c2cnc(C)cn2)CC1
15.9% | COc1ccc(-n2c(SCc3nc(-c4ccc(C)cc4)no3)nnc2-c2ccncc2)cc1
12.0% | O=C(COc1ccc(Cl)cc1)NCc1nnc(SCC(=O)N2CCCC2)o1
3.7% | COc1cc(OC)cc(C(=O)NNC(=O)CN2C(=O)NC3(CCCC3)C2=O)c1
4.4% | O=C(NCCc1ccc(Cl)cc1)c1ccc(Cn2c(=O)c3cccn3c3cccnc32)cc1
-12.0% | CCOc1ccc(NC(=S)N(C)C)cc1
-13.5% | CC(C)(C)C(=O)NCc1ccc(C(=O)CSc2nnc(-c3ccncc3)n2C2CC2)s1
-12.2% | CSc1sc(C(=O)N(C)C)cc1S(=O)(=O)C(C)C
-5.1% | CC(NCc1ccc(S(N)(=O)=O)cc1)C(=O)NCc1ccccc1 (configuration not stated)
-19.7% | CCCc1nc2ccccc2n1Cc1ccccc1OC
0.3% | CCN(CC)C(=O)CSc1nc2ccccc2c(=O)n1-c1ccccc1OC
3.1% | CC1CCN(C(=O)CSc2nnc(CNC(=O)c3ccco3)o2)CC1
-14.6% | CCOc1ccc(CN2C(=O)c3ccccc3C2=O)cc1C(=O)Nc1nnc(SCC)s1
-7.7% | Cc1cccc(NC(=O)C(=O)NCc2ccccn2)c1
0.8% | Cc1c(C=O)cnn1CCC(=O)O
0.3% | COCCN(C(=O)c1ccco1)c1nnc(-c2ccc(OC)c(OC)c2)s1
2.2% | COc1ccc(CC(=O)NC2CC(=O)N(c3ccc(C)c(C)c3)C2)cc1OC (configuration not stated)
44.7µM* | CCOC(=O)c1sc(N/N=C/c2ccccc2)nc1C
6.2% | COc1ccccc1Nc1ncnc2c1nc1n2CCCCC1
5.5% | Cc1ccc(F)cc1NC(=O)CCc1c(C)[nH]c(=O)c(C#N)c1C

# Four compounds out of the list above, sorted by the number in VDR inhibitor, rising.
Compound | VDR inhibitor
COCCN(C(=O)c1ccco1)c1nnc(-c2ccc(OC)c(OC)c2)s1 | 0.3%
COc1ccc(CC(=O)NC2CC(=O)N(c3ccc(C)c(C)c3)C2)cc1OC (configuration not stated) | 2.2%
Cc1ccc(F)cc1NC(=O)CCc1c(C)[nH]c(=O)c(C#N)c1C | 5.5%
COc1ccccc1Nc1ncnc2c1nc1n2CCCCC1 | 6.2%

# The results go on.
VDR inhibitor | Molecule
u | O=C(Nc1cc(S(=O)(=O)Nc2ccc(Cl)cc2)ccc1O)c1ccc(S(=O)(=O)N2CCCCCC2)cc1
-13.5% | CCc1c(O)nc(SC2CC(=O)N(c3ccccc3)C2=O)[nH]c1=O (configuration not stated)
-16.6% | Cc1ccc(C)c(N(CC(=O)NC2CCCCC2)C(=O)CNC(=O)c2ccco2)c1
-20.7% | Cn1c(=O)[nH]c(=O)c2c1nc(N1CCOCC1)n2CC(=O)c1ccccc1
-17.0% | OC(CCCC(O)c1ccccc1)c1ccccc1 (configuration not stated)
-7.6% | COc1ccc(CC(=O)Nc2c(C(=O)N3CCN(c4ccccc4OC)CC3)oc3ccccc23)cc1OC
3.6% | COCCNC(=O)c1cc(-c2ccccc2)nn1CC1CC(c2cccnc2)=NO1 (configuration not stated)
-13.8% | COc1cccc(CSc2nc3cc(OC)c(OC)cc3c3nc(CCn4nc(C)cc4C)nn23)c1
7.2% | CCc1ccccc1NC(=O)CCC(=O)Nc1nnc(C(C)C)s1
-2.4% | CCc1ccc(N2CC(C(=O)NCc3ccco3)CC2=O)cc1 (configuration not stated)
-9.4% | CCOc1ccc2nc(N/C(N)=N/S(C)(=O)=O)nc(C)c2c1
5.5% | CSC1=NC2(CCN(C(=O)NC3CCCCC3)CC2)N=C1c1ccc(C)c(C)c1
-1.5% | Cn1c(=O)c(=O)n(C)c2cc(S(=O)(=O)Nc3ccc(OC(F)(F)F)cc3)ccc21
-3.4% | Cc1nn(Cc2ccccc2Cl)c(C)c1C(=O)NCCN1C(=O)S/C(=C\c2ccccc2)C1=O
-9.5% | CCOC(=O)C1=C(Nc2ccc(Cl)cc2)OCC1=O
-7.1% | CC(C)C(=O)N1CCN(c2ccccc2NC(=O)c2ccc(C#N)cc2F)CC1
-4.5% | COc1ccccc1NS(=O)(=O)c1ccc(C(=O)NCC2(N(C)C)CCCCC2)cc1
-23.7% | Cc1ccc(S(=O)(=O)N/N=C/c2cccc3nccnc23)cc1
7.4% | CC(C)(C)c1ccc(C(=O)Nc2ccc(F)cc2)s1
-12.7% | Cn1c(=O)[nH]c(=O)c2c1nc(NCc1ccccc1)n2Cc1ccc(F)cc1
-0.3% | CC1CCCC(NC(=O)COC(=O)Cc2ccc(Br)cc2)C1C (configuration not stated)
-5.4% | Cc1ccc2nc(NC(=O)CSc3nc4ccccc4o3)sc2c1
2.1% | Cc1cc(Cl)ccc1OCC(=O)NCCCn1ccnc1
-8.4% | CCN1CCCC1CNC(=O)Cn1nc(C)n2nc(-c3ccccc3)cc2c1=O (configuration not stated)
4.9% | COc1ccc(/C=N/NC(=O)CNC(=O)C2COc3ccccc3O2)cc1OC (configuration not stated)
17.2%&-5.2% | O=c1cc(-c2ccccc2)nc2cc(-c3ccc(F)cc3)[nH]n12
-1.7% | CCC(C)Sc1oc(-c2ccco2)nc1S(=O)(=O)c1ccc(C)cc1 (configuration not stated)
2.3% | COc1ccc(C(=O)NC(C(=O)NCC(=O)Nc2c(C)cccc2C)C(C)C)cc1 (configuration not stated)
14.7% | CCOc1ccc(-n2c(=O)c3c(C)c(C)sc3n(CC(=O)N3CCC(C)CC3)c2=O)cc1
1.3%&-2.8% | O=c1cc(-c2ccc(O)cc2)oc2ccc(O)cc12
-3.2% | Oc1ccccc1Nc1nc(NCc2ccccc2)c2ccccc2n1
-0.8% | CN(C)S(=O)(=O)c1ccc(Cl)c(NC(=O)CN2C(=O)NC3(CCc4ccccc43)C2=O)c1 (configuration not stated)
3.8% | O=C1CN(C(=O)COC(=O)COc2ccccc2)c2ccccc2N1
-7.5% | CC(C)Oc1ccc(S(=O)(=O)N2CCOCC2)cc1NC(=O)CC1OC(=O)c2ccccc21 (configuration not stated)
11.7% | CC(C)c1ccc(NC(=O)CN2C(=O)CSc3ccc(S(=O)(=O)N4CCCC4)cc32)cc1
-1.4% | O=C(NC(Cc1ccccc1)C(=O)O)/C(=C/c1ccccc1)NC(=O)c1ccccc1 (configuration not stated)
-1.9% | COCCCn1c(SC(C)C(=O)Nc2c(C)n(C)n(-c3ccccc3)c2=O)n[nH]c1=O (configuration not stated)
19.4% | CC(C)c1cnc2c(c1SCC(=O)N1CCCCC1)c(=O)n(C)c(=O)n2C
18.0% | COc1ccccc1NC(=O)Cc1cccs1
7.6% | Cc1noc(NS(=O)(=O)c2ccc(N/C=C/C(=O)c3ccc4c(c3)OCO4)cc2)c1C
0.6% | CCc1ccccc1NC(=O)Cn1c(=O)nc(-c2ccccc2)c2ccccc21
15.4% | CCCN1CCN(CCCNC(=O)c2ccc3nc(N4CCCCC4)sc3c2)CC1
8.6% | CCOC(=O)C1=NNC(C(=O)c2ccc(OC)cc2)C1c1ccccc1 (configuration not stated)
16.5% | C[C@H](CO)N1C[C@H](C)[C@@H](CN(C)S(=O)(=O)c2ccccc2)Oc2c(NS(=O)(=O)c3cccs3)cccc2C1=O
6.6% | CCOc1ccc(NC(=O)N2CCC(CN3CCCCCC3)CC2)cc1
15.2% | CN(CC(=O)Nc1ccc(F)c(F)c1F)C(=O)/C=C/c1ccco1
21.7% | Cc1nc2ccc(NC(=O)c3cc(Cl)ccn3)cc2s1
u | O=C(O)c1ccc(/C=C2/SC(=S)N(Cc3ccccc3)C2=O)cc1
-0.2% | Cc1ccc(OCC(=O)Nc2cccc(-c3nc4ccccc4s3)c2)cc1
-6.6% | Cc1ccc2cc(CN(CC3CCCO3)C(=O)c3cccs3)c(=O)[nH]c2c1 (configuration not stated)
7.6% | CC(Sc1nnc(Cc2cccs2)n1C1CCCCC1)C(=O)NCc1ccco1 (configuration not stated)
-2.9% | Cc1ccccc1NC(=O)c1ccc(F)c(S(=O)(=O)N2CCN(c3ccccc3F)CC2)c1
1.7% | Cc1cc(NC(=O)CN2C(=O)NC(CC(C)C)C2=O)no1 (configuration not stated)
-11.9% | CCN(c1ccc(NC(=O)CSc2nnc3nc(C)cc(C)n23)cc1)C(C)C
-14.7% | O=C(CS(=O)(=O)Cc1ccccc1)Nc1ncccn1
-21.9% | CCOc1ccc(NC(=S)Nc2cc(-c3ccccc3)[nH]n2)cc1

# The results go on:
VDR inhibitor | Molecule
-10.7% | CC(=O)c1ccc(N2CCN(C(=O)c3ccc(OCc4c(C)noc4C)cc3)CC2)cc1
5.4% | COc1ccc(C2=NOC(C(=O)NCc3cccs3)C2)cc1OC (configuration not stated)
-2.5% | COc1cc(S(=O)(=O)N(C)C)ccc1F
4.1% | CCOC(Cn1cc(C)c(=O)[nH]c1=O)OCC
-8.3% | CCCC(OC(=O)CN1C(=O)COc2ccccc21)C(=O)NC1CCCC1 (configuration not stated)
14.8% | O=C(O)CCC(=O)Nc1ccccc1C(=O)NC1CCCCC1
7.3% | CCn1c(SCC(=O)NCCc2ccccc2)nc2c(c1=O)SC(C)C2 (configuration not stated)
-12.8% | O=C(c1ccccc1)n1ccc(-c2cnc(-c3ccccc3)s2)n1
9.0% | COC(=O)[C@H](COC(C)(C)C)NC(=O)O[C@@H]1C(=O)c2ccc(OC)cc2O[C@H]1c1cccc(C(F)(F)F)c1
6.4% | Cc1nc(-c2ccc(Cl)cc2)sc1CCNC(=O)c1cccs1
3.6% | CNC(=S)NNC(=O)COc1cccc(C)c1C
10.4% | O=c1c2ccccc2n2c(-c3ccccc3F)nnc2n1CCc1ccccc1
-8.3% | CC(C)Cc1nnc(NC(=O)CN2C(=O)C3CCCCC3C2=O)s1 (configuration not stated)
-12.8% | O=[N+]([O-])c1ccccc1/C=C/C=N/N1CCCCC1
-17.8% | CC1CCCC(NC(=O)CSc2nncs2)C1C (configuration not stated)
0.3% | Cc1onc(-c2ccccc2Cl)c1C(=O)N1CCCCC1
-7.5% | Cc1cccc(-c2noc(C(C)NC(=O)c3ccco3)n2)c1 (configuration not stated)
-1.5% | COc1ccc(C(=O)NNC(=O)c2cc3cc(OC)ccc3oc2=O)cc1
7.7% | Cc1ccc(S(=O)(=O)NC(C)C(c2cccs2)N2CCOCC2)cc1 (configuration not stated)
u | CN(C)C(CNC(=O)CCNC(=O)c1ccc(Cl)cc1)c1ccco1 (configuration not stated)
13.3% | Cc1ccccc1CC1(CO)CCCN(C(=O)c2cc(Cl)ccc2F)C1 (configuration not stated)
-1.3%&-5.6% | COc1ccc(NC(=O)CSc2nccn2Cc2ccco2)c(OC)c1
-17.9% | NC(=O)C1CCCCc2c1[nH]c1ccc(Cl)cc21 (configuration not stated)
0.0% | COc1ccc2c(c1)c1ncn(CCN3CCCCC3)c(=O)c1n2C
8.8% | CC(=O)c1cccc(NC(=O)c2cccc3ccccc23)c1
2.4% | CCOC(=O)/N=C(/NC(=O)Nc1ccc(C(=O)OCC)cc1)OC
-7.9% | CC(C)n1cc(/C(N)=N/O)c(=O)n(Cc2ccccc2)c1=O
-0.2% | O=C(COC(=O)c1cc([N+](=O)[O-])ccc1N1CCOCC1)NCc1ccc(F)cc1
-10.8% | COc1ccc(N2CCC(CNC(=O)Nc3cccc(OC)c3)C2)cc1 (configuration not stated)
9.5% | COc1cc(CN(C)C(=O)C2CCN(S(=O)(=O)c3cccs3)CC2)ccc1OC(F)F
2.1% | CC#CC[N+](C)(C)CC(=O)c1ccccc1
-9.3% | CN(c1ccccc1)S(=O)(=O)c1cccc(NC(=O)CCNC(=O)c2ccc(Cl)cc2)c1
-28.9% | Cc1noc(C)c1C(=O)N1CCN(c2ccc(OCc3ccccc3)cc2)CC1
-2.9% | CCOC(=O)C1(C)C=C(Nc2cccc(C(=O)O)c2)C(=O)N1c1cccc(C(=O)O)c1 (configuration not stated)
-15.9% | CC(C)Nc1nc(-c2ccncc2)nc(-c2ccc(Cl)cc2)c1C#N
6.8% | CC1=NN(c2nc(-c3ccc(C)cc3)cs2)C(=O)C1N=Nc1ccc(C(N)=O)cc1 (configuration not stated)
-4.3% | Cc1cc2nn(-c3ccccc3)nc2cc1NC(=O)c1cccc2c(Cl)cccc12
